High-throughput results as filed in PubChem BioAssay.
CBX7 AlphaScr – CBX7 inhibition, primary AlphaScreen; AlphaScreen His6-CBX7 / biotin-H3K27me3 peptide binding; stronger effect = lower value; O95931; normalised signal (fraction of DMSO) (test concentration not listed); 1.1% of 66,000 active; in the data active = normalised signal below about 0.5;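 note: 100 nL library stock added to about 20 µL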
Target sequence (O95931 whole entry, looked up): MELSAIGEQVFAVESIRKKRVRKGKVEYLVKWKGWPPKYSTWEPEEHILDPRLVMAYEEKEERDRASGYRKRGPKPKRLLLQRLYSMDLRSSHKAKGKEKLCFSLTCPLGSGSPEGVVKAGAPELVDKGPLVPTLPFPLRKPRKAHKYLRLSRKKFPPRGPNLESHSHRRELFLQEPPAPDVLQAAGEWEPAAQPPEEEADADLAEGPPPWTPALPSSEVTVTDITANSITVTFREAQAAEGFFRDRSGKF
CBX7 AlphaScr z-score – further read-out of CBX7 AlphaScr, marked with its call; z-score; measured here: z-score of CBX7 signal; some inactives read as strong as hits; reference of the scale not given here;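 same signal on another scale; lower means less binding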
An asterisk follows results filed as active.

SMILES | CBX7 AlphaScr | CBX7 AlphaScr z-score
CCN(CC)C(=O)c1c[nH]c2ccc(S(=O)(=O)N3CCC(C)CC3)cc2c1=O | 1.06 | 0.895
CCN(CC)S(=O)(=O)c1ccc2c(c1)N(CC(=O)NCc1ccccc1)C(=O)CO2 | 1.15 | 2.36
Cc1c(C(=O)Nc2ccc(Br)cc2F)oc2ccc(S(=O)(=O)N3CCCC3)cc12 | 1.02 | 0.383
CCN(CC)CCn1c2ccccc2n2cc(-c3ccc(C)cc3)nc12 | 1.13 | 1.45
Cc1ccc2c(c1)-c1c(cnn1CC(=O)NCC1CCCO1)CO2 (stereo not given) | 1.08 | 2.17
Cc1ccc(-c2nc3cc(NC(=O)c4ccc(Cl)cc4Cl)ccc3o2)cc1C | 0.884 | -1.84
COc1ccc(OC)c(NC(=O)c2nccnc2C(=O)O)c1 | 0.713 | -3.68
CCn1c(C(=O)N2CCC(C(=O)O)CC2)cc2sccc21 | 1.05 | 2.24
OC(CN1CCCCCC1)Cn1c2ccccc2c2ccccc21 (stereo not given) | 1.04 | 0.425
Cc1nc2ncnn2c(C)c1Cc1ccccc1Cl | 1.02 | 0.599
O=C(Nc1c(-c2ccccc2)nc2ccccn12)c1cccc(F)c1 | 0.986 | -0.328
CC(=O)N1CCCc2cc(S(=O)(=O)N3CCN(c4ccccc4Cl)CC3)ccc21 | 0.961 | -0.726
CCCCN1CC(C(=O)NCc2ccc(C)cc2)CC1=O (stereo not given) | 0.985 | -0.749
COc1ccc(-c2csc(N3CCN(c4ccccn4)CC3)n2)cc1 | 1.03 | 0.729
COc1ccc(Cc2nc(-c3ccc(C)cc3)no2)cc1 | 1.22 | 7.67
CCCSCCCNC(=O)c1ccc2c(c1)N=C(CC)c1cc(C)ccc1S2 | 0.928 | -3.41
CC1CCN(c2cc(-n3nc(C(F)(F)F)cc3-c3ccccc3)ncn2)CC1 | 1.33 | 2.09
Cn1c(C(=O)NCCCSC2CCCCC2)cc2sc(Cl)cc21 | 1.03 | 0.498
Cc1ccc(C)c(NC(=O)CN(c2ccc(C(C)C)cc2)S(=O)(=O)c2c(C)nn(C)c2C)c1 | 1.03 | 0.601
CCN1CCN(c2nc(-c3ccc(C(C)(C)C)cc3)nc3ccccc23)CC1 | 1 | -0.00728
O=C(Nc1ccc(S(=O)(=O)Nc2ncccn2)cc1)c1cccnc1 | 0.968 | -0.893
Cc1nc2sc(C(c3cccs3)N3CCN(CCO)CC3)c(O)n2n1 (stereo not given) | 1.02 | 1.1
CC1c2nc3ccccc3n2C(CC(=O)NCc2ccc(Cl)cc2)C(=O)N1Cc1ccccc1 (stereo not given) | 0.873 | -1.95
COc1cccc(-c2nn(C)c3sc(C(=O)Nc4ccccc4N4CCN(C)CC4)cc23)c1 | 0.991 | -0.241
CCOC(=O)c1cnc2c(OC)cccc2c1N1CCC(C(N)=O)CC1 | 1.09 | 0.101
Cc1ccc(CNC(=O)c2cnn3c(C)c(Cc4cccc(Br)c4)c(C)nc23)cc1 | 1.11 | 0.834
O=C(NCc1ccccc1Cl)c1ccc2c(c1)ncn2-c1cccc(F)c1 | 0.934 | -1.77
O=C(Nc1ccncc1)C1CCCN(C(=O)c2cnn(-c3ccccc3)c2-n2cccc2)C1 (stereo not given) | 1.09 | 0.653
O=C(Cn1ncc2c1-c1ccccc1OC2)N1CCN(Cc2ccc3c(c2)OCO3)CC1 | 0.958 | -0.531
COc1cccc(NC(=O)c2cc3c(C)nn(-c4ccccc4)c3s2)c1 | 1.04 | 0.0375

Some of these compounds in order of count of non-hydrogen atoms, largest number first.
SMILES | CBX7 AlphaScr | CBX7 AlphaScr z-score
CC1c2nc3ccccc3n2C(CC(=O)NCc2ccc(Cl)cc2)C(=O)N1Cc1ccccc1 (stereo not given) | 0.873 | -1.95
Cc1ccc(C)c(NC(=O)CN(c2ccc(C(C)C)cc2)S(=O)(=O)c2c(C)nn(C)c2C)c1 | 1.03 | 0.601
O=C(Cn1ncc2c1-c1ccccc1OC2)N1CCN(Cc2ccc3c(c2)OCO3)CC1 | 0.958 | -0.531
Cc1ccc(CNC(=O)c2cnn3c(C)c(Cc4cccc(Br)c4)c(C)nc23)cc1 | 1.11 | 0.834
Cc1c(C(=O)Nc2ccc(Br)cc2F)oc2ccc(S(=O)(=O)N3CCCC3)cc12 | 1.02 | 0.383
CCN(CC)C(=O)c1c[nH]c2ccc(S(=O)(=O)N3CCC(C)CC3)cc2c1=O | 1.06 | 0.895
O=C(NCc1ccccc1Cl)c1ccc2c(c1)ncn2-c1cccc(F)c1 | 0.934 | -1.77
COc1cccc(NC(=O)c2cc3c(C)nn(-c4ccccc4)c3s2)c1 | 1.04 | 0.0375
O=C(Nc1c(-c2ccccc2)nc2ccccn12)c1cccc(F)c1 | 0.986 | -0.328
OC(CN1CCCCCC1)Cn1c2ccccc2c2ccccc21 (stereo not given) | 1.04 | 0.425
Cn1c(C(=O)NCCCSC2CCCCC2)cc2sc(Cl)cc21 | 1.03 | 0.498
COc1ccc(OC)c(NC(=O)c2nccnc2C(=O)O)c1 | 0.713 | -3.68
COc1ccc(Cc2nc(-c3ccc(C)cc3)no2)cc1 | 1.22 | 7.67
Cc1nc2ncnn2c(C)c1Cc1ccccc1Cl | 1.02 | 0.599

Further records follow.
SMILES | CBX7 AlphaScr | CBX7 AlphaScr z-score
Cc1nc2c(C(=O)NCc3ccc(F)cc3)cnn2c(C)c1Cc1ccccc1 | 1 | 0.175
Cc1ccccc1N(C)C(=O)Cc1c(C(=O)O)[nH]c2ccc(Cl)cc12 | 1.32 | 3.05
O=C(CCCC1=NS(=O)(=O)c2ccccc2N1)N1CCN(c2ccc(Cl)cc2)CC1 | 0.938 | -0.715
COc1cccc(-n2c(C)nc3c(cnn3-c3ccc(C)cc3)c2=O)c1 | 0.812 | -2.88
CCn1c(=O)cc(OCC(=O)NCc2cccnc2)c2ccccc21 | 1.05 | 0.837
Cc1ccc(C2(c3ccc(C)cc3)CC2C(=O)Nc2ccccc2F)cc1 (stereo not given) | 0.925 | -0.954
COc1ccccc1NC(=O)CCc1c(C)[nH]c(=O)c(C#N)c1C | 0.78 | -2.36
COc1ccc(Nc2cc(C(=O)NCC3COc4ccccc4O3)c3ccccc3n2)cc1OC (stereo not given) | 0.621 | -4.5
CCOc1ccc(C2C(=O)N(C3CCCCC3)CC(=O)N2Cc2ccccc2)cc1OC (stereo not given) | 0.938 | -1.38
CCn1c(C(=O)N2CCC(C(=O)N3CCCCCC3)CC2)cc2sccc21 | 0.907 | -0.409
CC(C)CCOc1ccc(C(=O)C(CN2CCOCC2)c2ccccc2)cc1 (stereo not given) | 0.936 | -0.681
CC(C)OCCCNC(=O)C1CCCN(c2nnc(-n3cccc3)s2)C1 (stereo not given) | 0.95 | -1.09
O=S(=O)(Nc1nc2ccccc2nc1N1CCc2ccccc2C1)c1ccc(Br)cc1 | 0.403* | -5.92*
CCOC(C#CCN(CC)CC)(c1ccccc1)c1ccccc1 | 0.983 | -0.368
CC(C)c1ccc(C(=O)Nc2ccc3oc(-c4cccnc4)nc3c2)cc1 | 1.03 | 0.0384
COCCNC(=O)c1cn(-c2ccc(F)cc2F)c(=O)c2ccccc12 | 1.02 | 0.742
c1cc2nncn2nc1NCCN1CCOCC1 | 1.15 | 1.95
O=C1CC(c2ccccc2Cl)c2cc3c(cc2N1)OCO3 (stereo not given) | 0.74 | -2.58
CCOC(=O)N1CCC(Nc2c(NCCC3=CCCCC3)c(=O)c2=O)CC1 | 1.04 | 0.461
CC(C)CC(=O)Nc1cccc(-c2nnc(-c3ccccc3)o2)c1 | 1.08 | 0.0898
Clc1ccc(-n2ncc3c(NCCCN4CCOCC4)ncnc32)cc1 | 1.09 | 0.312
Cc1ccc(NC(=O)C2CCCN(S(=O)(=O)c3cccnc3)C2)c(C)c1 (stereo not given) | 1.01 | 0.00523
O=C1CCCc2c1c1cc(CN3CCCCC3)ccc1n2CCN(Cc1ccccc1)Cc1ccccc1 | 0.83 | -1.67
COc1cccc(-c2nc(-c3ccc(Br)cc3)no2)c1OC | 1.2 | 3.01
CCOc1ccc(Sc2cc(C(=O)NCC3CCCO3)c3ccccc3n2)cc1 (stereo not given) | 1.01 | 0.68
O=C(CC1Sc2ccccc2NC1=O)Nc1ccc(C(F)(F)F)cc1 (stereo not given) | 1.08 | 0.0929
COc1ccc(-c2nnc(-c3ccc(C)cc3)o2)cc1OC | 1.02 | 0.444
CCOc1ccccc1C(=O)Nc1ccc2nc(N3CCN(c4ncccn4)CC3)cc(C)c2c1 | 1.14 | 6.16
Cc1cc(C)c(C#N)c(Oc2cccc(NC(=O)CC(C)C)c2)n1 | 1.13 | 1.25
CCCC1=Nc2cc(C(=O)NC3CCCC3)ccc2Sc2ccccc21 | 0.836 | -2.35
Cc1ccc(C)c2[nH]c(=O)c(CCNC(=O)c3ccc(C(F)(F)F)cc3)cc12 | 1.03 | 0.806
CCOC(=O)c1cc(-c2ccc(OC)cc2)n(CCC(=O)NC2CCC(C)CC2)c1C (stereo not given) | 0.914 | -1.69
Cc1cc(N2C(=O)c3ccc(C(=O)N(C)Cc4ccccc4)cc3C2=O)no1 | 1.03 | 0.637
O=C(CC1(O)C(=O)N(Cc2ccccc2Cl)c2ccccc21)c1ccccc1 (stereo not given) | 0.942 | -0.147
OC(COc1ccc2oc3c(c2c1)CCCC3)CN1CCN(c2ccccc2)CC1 (stereo not given) | 0.882 | -4.2
Cc1c(C(=O)NCc2ccccc2)sc2nc(-c3ccc(F)cc3)cn12 | 0.999 | -0.0309
Cc1cc(C)nc(SCC(=O)c2c(-c3ccccc3)[nH]c3ccccc23)n1 | 0.979 | -0.516
Cc1ccc(-c2noc(CCC(=O)N3CCN(c4ccccn4)CC3)n2)cc1 | 0.833 | -0.228
Cc1nc2ccccc2n1CC(O)COc1ccc(I)cc1 (stereo not given) | 0.977 | -0.363
Cc1ccc(-n2c(C)nc3c(cnn3-c3ccccc3Cl)c2=O)cc1 | 1.04 | 0.556
COc1ccc(-c2cc(C(=O)NCCCn3ccnc3)no2)cc1 | 0.983 | -0.364
COc1ccc(-c2cc(CCCC(=O)Nc3cc(C)ccc3C)no2)cc1 | 0.91 | -1.69
CSc1cccc(Nc2cc(C(=O)NC3CCCCC3)c3ccccc3n2)c1 | 1 | 0.107
O=C(CCNC(=O)Cn1ccc2ccccc2c1=O)NCCCN1CCCC1=O | 1.04 | 1.62
CCCN(CCC)C(=O)c1ccc2c(c1)N(CC)C(=O)c1ccccc1S2(=O)=O | 0.982 | -0.424
CCOc1ccccc1C(=O)Nc1nc2ccccc2s1 | 0.978 | -0.279
CCCOC(=O)Nc1nc(-c2ccc(C)cc2)c(C)s1 | 1.04 | 0.819
Cc1ccc(C)c(Nc2cc(C(=O)NCCN3CCOCC3)c3ccccc3n2)c1 | 1.16 | 2.47
Cc1nc2sc(C(c3cccs3)N3CCN(C)CC3)c(O)n2n1 (stereo not given) | 0.963 | -1.77
COc1ccc(C2=NN(CCC(=O)NCc3ccc4c(c3)OCO4)C(=O)CC2)cc1 | 0.98 | -0.275
Cc1ccccc1NC(=O)Cn1c(=O)n(C)c2ccccc21 | 1.05 | 0.86
CCOc1ccc(NC(=O)Cn2cc(S(=O)(=O)c3ccc(C)c(C)c3)c(=O)c3ccccc32)cc1 | 0.935 | -0.929
Cc1c2c(nc3c(C(=O)NC4CC4)cnn13)CCCC2 | 1.08 | 2.47
COc1ccc(-c2cc(C(F)(F)F)n3nc(C(=O)NC(C)(C)C)c(Cl)c3n2)cc1OC | 0.88 | -1.55
Cc1ccccc1-n1nc2c(c1NC(=O)c1ccc(F)cc1)CSC2 | 0.969 | -0.568
Cc1cc(Oc2ccc(=O)n(C)n2)nc(SCc2ccccc2)n1 | 1.04 | 0.939
CCOc1ccc2nc(C)cc(Nc3ccccc3OCC)c2c1 | 0.843 | -2.27
CCN1C(=O)c2ccccc2Sc2ccc(C(=O)NC3CC3)cc21 | 0.783 | -3.93
O=C(Cn1ncc2ccsc2c1=O)NCCCN1CCCC1=O | 1.01 | 0.549
COc1ccc(NC(=O)COCc2cc(-c3ccc(F)cc3)on2)cc1 | 0.864 | -1.35

More results follow.
SMILES | CBX7 AlphaScr | CBX7 AlphaScr z-score
O=C(NC1CCCC1)C1c2ccccc2C(=O)N1CCCN1CCOCC1 (stereo not given) | 1.07 | 1.3
COCCNC(=O)c1ccc2c(c1)ncn2-c1ccccc1OC | 1.03 | 0.638
CCCCNC(=O)CC1Sc2ccc(C(F)(F)F)cc2NC1=O (stereo not given) | 1.11 | 2.29
CC(=O)N1CCc2cc(S(=O)(=O)NCCC(=O)Nc3ccc(C)cc3C)ccc21 | 0.865 | -2.06
CCCCN(CCCC)S(=O)(=O)c1ccc2c(c1)CCN2C(=O)CC | 1.2 | 1.68
COc1ccc(CNC(=O)C2CCCN2CCc2ccccc2)cc1OC (stereo not given) | 1 | -0.00288
Cc1ccc(NC(=O)Cn2cnc3sc(C)c(C)c3c2=O)cc1F | 0.983 | -0.459
Cc1nnc(NC(=O)CN2C(=O)c3ccccc3S2(=O)=O)s1 | 1 | 0.0504
Cc1ccc2nc(NCC(=O)O)nc(-c3ccccc3)c2c1 | 1.13 | 3.21
O=[N+]([O-])c1ccc(Oc2sc(Nc3ccc(Cl)c(Cl)c3)nc2-c2ccccc2)cc1 | 0.709 | -7.75
CC1CC(C)CN(S(=O)(=O)c2ccc3c(c2)N(CC(=O)NC2CCCC(C)C2C)C(=O)CO3)C1 (stereo not given) | 0.732 | -7.7
COc1ccc(OC)c(CCNC(=O)Cn2ncc3ccsc3c2=O)c1 | 1.05 | 1.77
COc1cc2[nH]c(=O)n(Cc3ccc(C(=O)NC4CCN(Cc5ccccc5)CC4)cc3)c(=O)c2cc1OC | 0.986 | -0.363
COc1ccccc1NC(=O)N(CCN1CCOCC1)C1CCN(C(C)=O)CC1 | 1.06 | 1.01
Cc1cccc(C2(c3cccc(C)c3)CC2C(=O)Nc2cccc(C(F)(F)F)c2)c1 (stereo not given) | 1.05 | 0.648
COc1cc(CO)c(C2(C(=O)O)CCCC2)cc1OC | 0.891 | -0.249
Cc1ccccc1CN1C(=O)CSc2ccc(C(=O)NCCc3ccccc3)cc21 | 1.04 | 0.374

The list is partial; count on the stated rates, not on these rows.
